Screening results as filed in PubChem BioAssay.
CSC inhib: cancer stem cell viability inhibitors, primary screen, luminescence | cancer stem cell-like cells viability | inhibition, % at 7.5 µM | 300,000 compounds, 1.1% hits;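 active = mean at 75% or more and at least half the replicates too; inconclusive = mean and replicates disagree; tested in HMLE shEcad cells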;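 also: 0% = median of negative and 100% = median of positive control wells; the first replicate is given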
Yeast UUG start: modulators of yeast start codon fidelity, primary screen, whole organism, S. cerevisiae, single point, plate reader; S. cerevisiae UUG-firefly luciferase reporter, luminescence/redox ratio; activity score, % at 18.7 µM; 350,000 compounds, 0.13% hits; AID 602363, 2012;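 active = replicate mean at a twofold rise or more, about +100% in these data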;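 also: firefly luciferase made from a UUG start codon reports start codon fidelity; reporter light over untreated wells divided by growth signal over untreated wells; some hits fall short of that in this replicate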
PABP FP inh: PABP poly(A) RNA binding inhibitors, primary screen, biochemical, fluorescence polarization, uHTS. inhibition, % at 35 µM. AID 2014, 2009. 290,000 compounds, 1% hits. Polyadenylate-binding protein 1 (Homo sapiens), P11940;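 active = 50% or more with normal probe brightness, or confirmed in later tests; inconclusive = above 50% with abnormal brightness, or retests that disagree; inactive = below 50% or failed in later tests; about a fifth of its hits are not listed in these tables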;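 also: calls also rest on retests at 20 µM and on dose response follow-up; controls were probe without protein and protein plus probe with vehicle; some compounds called inactive have numbers as strong as hits; many hits fall short of the cut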
Target sequence (P11940 whole entry, looked up): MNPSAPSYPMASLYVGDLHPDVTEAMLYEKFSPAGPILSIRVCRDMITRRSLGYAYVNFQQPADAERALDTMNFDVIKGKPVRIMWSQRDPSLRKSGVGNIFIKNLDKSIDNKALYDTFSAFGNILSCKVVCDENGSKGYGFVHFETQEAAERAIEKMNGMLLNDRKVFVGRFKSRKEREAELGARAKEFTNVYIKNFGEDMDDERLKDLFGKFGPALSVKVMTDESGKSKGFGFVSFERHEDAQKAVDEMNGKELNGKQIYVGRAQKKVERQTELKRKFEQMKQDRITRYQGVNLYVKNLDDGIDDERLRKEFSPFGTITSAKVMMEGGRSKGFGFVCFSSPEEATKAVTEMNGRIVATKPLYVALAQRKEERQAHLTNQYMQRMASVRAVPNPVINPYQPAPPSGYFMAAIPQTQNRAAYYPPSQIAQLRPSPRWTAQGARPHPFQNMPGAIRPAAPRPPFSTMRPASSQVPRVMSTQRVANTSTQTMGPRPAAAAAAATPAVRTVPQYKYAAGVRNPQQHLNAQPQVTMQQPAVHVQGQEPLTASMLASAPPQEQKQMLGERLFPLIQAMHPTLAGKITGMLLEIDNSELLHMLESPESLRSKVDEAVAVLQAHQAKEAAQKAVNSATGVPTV
MT1-MMP act inh: blockers of MT1-MMP proenzyme processing, primary screen, HT1080 RFP-PRO-GFP cells, GFP/RFP fluorescence. 360,000 compounds, 0.061% hits. GFP/RFP ratio fluorescence, overnight; percent of plate control window, DMSO zero. AID 651647, 2012. GFP/RFP ratio change, % at 20 µM. Matrix metalloproteinase-14 (Homo sapiens), P50281;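 active = GFP/RFP ratio change of at least 30% with cell ATP level not reduced by more than half and red fluorescence within 50% of control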; also: strong numbers were not always called active
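Assay system: HT1080 cells carrying an RFP-PRO-GFP reporter | Dosing: Single dose of 20 µM compound, 1% DMSO final | Incubation: Cells overnight before dosing, compound overnight, 37 °C, 5% CO2 | Evaluation: GFP/RFP fluorescence ratio | Control set: DMSO and RFP-L50D-GFP cell wells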
Rce1 inhib: yeast Rce1p protease inhibitors, primary screen, biochemical, fluorescence, cell-free homogeneous; CAAX prenyl protease 2 (Saccharomyces cerevisiae (strain ATCC 204508 / S288c)), Q03530; yeast membranes, quenched prenylated peptide cleavage fluorescence; calls only; 290,000 compounds, 0.27% hits; AID 2563, 2010;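 active = fall in fluorescence gain of 50% or more versus controls, with final raw signal at or below 3038400; inconclusive = same 50% fall but final raw signal above 3038400; inactive = fall in fluorescence gain under 50%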;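 also: plate controls were neutral control wells for no effect and wells lacking membranes for full effect; tested at 10 µM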
eIF4H FP inh: human eIF4H binding inhibitors, primary screen, translation initiation inhibitor project, biochemical, uHTS, fluorescence polarization; eIF4H fluorescence polarization binding assay; inhibition, % at 35 µM; 290,000 compounds, 0.94% hits; AID 2012, 2009;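 active = 50% or more with normal probe brightness, or confirmed in later tests; inconclusive = above 50% with abnormal brightness, or retests that disagree; inactive = below 50% or failed in later tests; about a fifth of its hits are not listed in these tables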;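 also: calls also rest on retests at 20 µM and on dose response follow-up; 0% = protein and probe with vehicle and 100% = probe without protein; strong numbers were not always called active; many hits fall short of the cut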
HIV Env fusion: inhibitors of HIV-1 Env-driven cell-cell fusion, primary screen, HeLa-JRFL effector, CEM21 target cells, luciferase; inhibition, % at 12.3 µM; 360,000 compounds, 1.1% hits; AID 651610, 2012;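 active = mean replicate inhibition score of at least 50 and every replicate individually at or above 50; inconclusive = only one of the two criteria met; inactive = mean below 50 and not all replicates reaching 50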;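 also: 0% = plate neutral controls and 100% = maraviroc near 300 nM; one replicate is shown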
MT1-MMP act inh RFP: further read-out of MT1-MMP act inh, marked with its call; RFP signal change, %; measured here: RFP expression control read;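 0 = vehicle wells; hits needed this value within 50% of zero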
* marks the source's active call; other numbers are inactive results; i = inactive; ? = inconclusive; / = not tested or not shown; & = joins results of further samples. Not all compounds are listed; count on the stated rates, not on these rows.

Structure	CSC inhib	Yeast UUG start	PABP FP inh	MT1-MMP act inh	MT1-MMP act inh RFP	Rce1 inhib	eIF4H FP inh	HIV Env fusion
COC(=O)c1cn(CCOc2ccccc2)c2ccccc12	12.8	/	4.0	-0.4	-2.2	i	-8.5	/
COc1ccc(CNC(=O)CS(=O)Cc2nc(-c3ccccc3C)oc2C)cc1 (configuration not stated)	/	-13.7	0.2	3.0	-1.4	i	3.6	29.3
CCOC(=O)C1=C(O)/C(=C/c2cc(OC)c(OC)c(OC)c2)N=C1C	7.4	-10.5	-2.0	3.7	5.6	i	4.8	/
COc1ccc(NC(=O)c2ccc(S(=O)(=O)N3CCCCCC3)cc2)c(OC)c1	-9.8	-11.4	-0.7	1.3	-4.9	i	-1.0	16.1
Nc1cc(=O)[nH]c(SCC(=O)Nc2ccc(N3CCOCC3)cc2)n1	8.8	-9.1	/	4.5	3.0	/	/	-26.7
O=C(Nc1cccc2ccccc12)c1cc2c(cc1Br)OCO2	1.4	-19.5	-6.1	-0.6	1.7	i	-12.9	16.5
Cc1cc(C)c(C(=O)COC(=O)c2c(C)noc2C)cc1C	9.3	-21.7	/	1.8	-1.0	/	/	/
C#CCOCCOCCOCCNc1nc(N2CCN(C(=O)Cn3cc(CCCCN)nn3)CC2)nc(N2CCN(C(=O)Cn3cc(CCCCN)nn3)CC2)n1	3.4	21.2	13.8	0.8	5.6	i	36.3	-4.5
Cc1cc(NC(=O)c2noc3c2CCCC3)no1	7.9	-18.9	-11.5	-2.2	1.5	i	0.6	5.3
COc1ccc(S(=O)(=O)N2CCN(C(=O)c3c(-c4ccccc4)noc3C)CC2)cc1	-4.2	-7.8	5.1	-1.0	-3.3	i	-2.3	/
Cc1ccc(-n2nnnc2SC(C)C(=O)NCC(=O)Nc2ccc(F)c(F)c2F)c(C)c1 (configuration not stated)	5.5	/	-8.6	2.1	-6.3	i	-1.9	36.3
Cc1cccc2cc(-c3ccccc3)c(-c3ccccc3)c[n+]12	11.9	15.9	-0.8	0.3	-25.8	i	-4.2	27.9
O=C(COC(=O)CNC(=O)c1ccc(Cl)cc1Cl)Nc1ccc(N2CCOCC2)cc1	/	-2.1	4.1	0.9	5.7	i	-7.4	8.4
CC1(C)C(=O)OC(C(=O)c2ccc(C(C)(C)C)cc2)C(C)(C)C1=O (configuration not stated)	-12.1	-15.6	-4.8	4.2	2.7	i	0.7	/
CCOc1ccc(C2=Nn3c(nnc3-c3ccccc3OC)SC2)cc1	-1.0	-14.0	-0.1	6.4	-12.3	i	-0.6	?
O=C(N/N=C/c1ccc(Cl)cc1Cl)C(=O)NC1CC1	/	/	-4.5	2.5	1.6	i	2.8	-4.5
CCOC(=O)N(C)C[C@H]1OCc2cnnn2CCCC(=O)N([C@@H](C)CO)C[C@@H]1C	/	-22.3&-6.0	/	-3.1	3.6	/	/	21.7
Cc1ccc(NC(=O)C(C)N2CCc3ccccc3C2)cc1 (configuration not stated)	-5.7	-8.1	3.9	-1.6	2.4	i	1.5	-1.4
COc1ccc(C2=C(SC)CC2=NC(C)(C)C)cc1	-1.1	/	6.0	2.5	1.7	i	-3.1	5.4
CC1CN(C(=O)c2ccc(N3CCCCC3)c([N+](=O)[O-])c2)CC(C)O1 (configuration not stated)	-6.3	-8.8	-3.5	4.6	2.8	i	0.3	/

Reprinted from the results shown for reference:
Structure	CSC inhib	Yeast UUG start	PABP FP inh	MT1-MMP act inh	MT1-MMP act inh RFP	Rce1 inhib	eIF4H FP inh	HIV Env fusion
Cc1ccc(-n2nnnc2SC(C)C(=O)NCC(=O)Nc2ccc(F)c(F)c2F)c(C)c1 (configuration not stated)	5.5	/	-8.6	2.1	-6.3	i	-1.9	36.3
Cc1cccc2cc(-c3ccccc3)c(-c3ccccc3)c[n+]12	11.9	15.9	-0.8	0.3	-25.8	i	-4.2	27.9

Continued.
Structure	CSC inhib	Yeast UUG start	PABP FP inh	MT1-MMP act inh	MT1-MMP act inh RFP	Rce1 inhib	eIF4H FP inh	HIV Env fusion
CC1CC(C)CN(CCCNC(=O)c2csc3c2CCCCC3)C1 (configuration not stated)	36.4	-2.8	3.0	6.9	7.8	i	-7.9	16.1
CCc1cccc(CC)c1NC(=S)NC(C)c1ccccc1 (configuration not stated)	28.0	/	3.0	1.2	-1.0	i	-2.7	-1.5
CCC1CCCCN1CCCNC(=O)CN1C(=O)COc2ccccc21 (configuration not stated)	-9.5	-12.4	-3.7	1.8	1.6	i	1.4	1.8
CC(CN1CCCC1)OC(=O)c1ccc(Br)cc1 (configuration not stated)	-20.6	-4.3	1.4	-2.8	-0.1	i	2.4	1.1
OCC[C@H]1C[C@@H](O)[C@H](O)[C@@]2(CCc3ccccc3O2)O1	-14.6	-7.5	/	0.0	0.3	/	/	-9.5
CCN(CC)C(=O)c1sc(NC(=O)C(C)C)c(C#N)c1C	-3.1	19.8	4.7	2.3	4.4	i	-1.8	-23.0
O=C(c1cccs1)c1ccccc1Cc1cccs1	/	-5.0	/	-1.9	1.1	/	/	-2.8
CC(C)c1ccc2[nH]c3c(c2c1)CCC/C3=N\NC(=O)c1ccncc1	39.3	-31.3	-0.1	0.9	-5.5	i	-10.2	1.7
COc1ccc2nc(N=Nc3ccc(N(C)C)cc3)sc2c1	/	-14.6	1.8	40.3	5.0	/	3.8	-383.4
CCNc1ccc(C(=O)OCC(=O)NC(=O)NCC(C)C)cc1[N+](=O)[O-]	-8.4	/	-13.1	5.3	2.3	i	0.6	10.7
O=C(NCCOc1ccccc1)C1CCC(=O)N(CCCN2CCCC2=O)C1 (configuration not stated)	-3.4	-7.7	0.2	-2.5	0.7	i	-15.1	?
COc1cc(NC(=O)c2ccco2)c(OC)cc1NC(=O)CSc1nnc(-c2cccs2)n1C	-2.7	-17.2	1.7	-14.7	1.2	i	0.7	-21.0
CCCCn1c(N)c(N(CC(C)C)C(=O)c2oc3ccc(Br)cc3c2C)c(=O)[nH]c1=O	3.2	/	/	-4.8	-6.6	i	/	1.7
Cc1ccc(C(=O)c2ccccc2C(=O)O)cc1C	16.7	-5.3	-8.4	-3.2	1.2	i	-1.2	8.2
Cc1ccc(CCNC(=O)CSCc2ccc(F)cc2)cc1	-2.6	-6.4	6.6	-0.4	1.7	i	-2.2	6.2
CCOc1ccccc1OCCCC(=O)Nc1ccc(OC)nc1	-12.0	-0.2	7.0	5.1	0.6	i	9.1	/
O=C(CSc1nnc(-c2ccncc2)n1CC1CCCO1)Nc1nccs1 (configuration not stated)	-11.7	-10.3	8.3	5.3	2.9	i	13.0	-31.7
COCc1nc(-c2cc(Br)ccc2OC)no1	16.8	-7.4	-10.3	5.3	1.7	i	2.2	/
CCNc1nc(NCc2ccccc2)nc(SCC(=O)Nc2ccccc2)n1	-3.3	/	1.6	-9.5	-17.5	i	-4.2	/
COc1ccccc1NC(=O)c1cc2ccccc2o/c1=N\O	16.1	-10.7	0.2	0.1	-0.2	i	0.6	/
CC(=O)c1ccc(N2CCN(C(=O)c3ccc(NC(=O)C4CCCO4)cc3)CC2)cc1 (configuration not stated)	/	-26.0	4.3	1.0	-2.2	i	1.7	-42.4
CCc1nn(CC(=O)NCCCN2CCOCC2)c(=O)c2cc3sccc3n12	-12.1	-21.0	-9.0	4.3	4.0	i	-8.7	3.1
CCc1nc2ccc(C(=O)Nc3ccc(OC)c(OC)c3)cn2c1N(C)Cc1ccc(OC)cc1	/	-6.8	/	0.1	-0.2	/	/	-4.0
O=C(NCCCN1CCOCC1)c1c(-c2ccccc2)sc2ccccc12	/	-2.2	/	1.8	3.3	/	/	1.6
COc1ccc(NS(=O)(=O)c2cc(NC(=O)/C=C/c3cc(OC)c(OC)c(OC)c3)ccc2N2CCCCC2)cc1	-10.0	-12.9	-9.8	2.0	0.7	i	-7.6	/
CC1CCCCC1NC(=O)CSc1nnc(-c2ccncc2)n1CCCN(C)C (configuration not stated)	/	-19.2	3.5	-0.9	2.1	i	-9.0	3.7
COc1cccc(NC(=O)N2CCC(C(N)=O)(N3CCCCC3)CC2)c1	-14.8	-12.4	-6.3	1.8	5.4	i	-4.6	/
OCCNC1=NCCN1	/	7.3	45.5	-6.9	1.2	i	-12.2	/
COc1cccc(CN(C)C(=O)c2cccc(OCc3ccccc3)c2)c1	-6.0	-6.1	14.6	-2.3	2.2	i	-13.5	11.9
N=C1C(=O)OCC1c1cc(Cl)ccc1NC(=O)Nc1ccccc1 (configuration not stated)	2.7	-14.2	-1.4	4.4	3.1	i	3.8	-37.5
c1ccc(COCCN2CCN(CCOCc3ccccc3)CC2)cc1	/	-14.1	-7.5	8.1	4.7	i	-0.3	/
CCCCCn1c(=O)[nH]c2cc(C(=O)NCCN3CCOCC3)ccc2c1=O	-3.1	-1.6	/	-1.6	0.2	/	/	-44.2
Cc1cc(C)c(OCC(=O)Nc2cccc(O)c2)cc1C	-9.3	-12.7	-6.0	4.9	-1.2	i	-8.8	/
CC[C@H](C)[C@@H](C(=O)N1CCNCC1)n1cc([C@@H](N)Cc2ccc(O)cc2)nn1	-6.6	-11.4	0.3	3.4	1.6	i	-3.7	1.2
COCCNC(=S)N(Cc1cccs1)Cc1cc2cccc(C)c2[nH]c1=O	-23.0	/	0.6	-4.1	-6.5	i	0.7	21.5
CC(C)N(Cc1ccccc1)C(=O)c1ccc2nsnc2c1	0.2	-1.3	-4.6	-0.5	1.5	i	9.1	3.6
CCCn1c(NCc2ccc(N(C)C)cc2)nc2ccccc21	-9.3	-14.3	6.1	-1.5	0.8	i	-1.5	-23.2
O=C(NNC(=O)c1ccc2ccccc2c1O)c1ccccc1Cl	24.0	/	5.5	4.0	17.7	i	7.7	/
Nc1cc(N)nc(SCC(=O)N2CCN(C(=O)c3ccco3)CC2)n1	-3.7	-1.9	7.4	-3.4	-2.3	i	1.2	5.7
O=C(CCC1CCN(C(=O)c2ccco2)CC1)NCc1ccc(F)cc1	-9.7	0.4	-5.7	-3.1	-2.6	i	-1.4	5.4
Cc1cc(=O)[nH]c(N/N=C/C2=C(N3CCOCC3)C(=C\c3ccc(Cl)cc3)/CC2)n1	15.7	/	-7.7	-3.1	8.9	i	23.9	14.8
O=C(OC(c1ccccc1)c1nccc2ccccc12)c1cccc([N+](=O)[O-])c1 (configuration not stated)	7.2	/	-3.5	1.2	1.6	i	7.5	14.4
C=CCN=Cc1c(C)[nH]n(-c2ccccc2)c1=O	-3.2	/	5.3	0.9	-1.8	i	0.3	-12.7
COc1ccc(NC(=O)COC(=O)CN2C(=O)C3CC=CCC3C2=O)c([N+](=O)[O-])c1 (configuration not stated)	-27.2	-9.6	/	3.4	3.0	/	/	2.1
O=C(Nc1cc([N+](=O)[O-])ccc1C(=O)Nc1cccnc1)c1ccccc1	-4.8	-20.7	7.2	-5.9	-5.1	i	-1.7	4.3
COc1cc(NC(=O)c2ccc3c(c2)OCO3)c2ncccc2c1	-6.8	-14.6	5.6	2.9	1.4	i	0.7	/
